Screening results: PubChem BioAssay, several laboratories
Beta apoptosis – beta cell apoptosis inhibition; INS-1E cytokine-induced death, ATP luminescence, 48 h; percent of positive-control rescue, neutral wells zero; protection from apoptosis, % (no concentration beside the values); 0.8% of 300,000 active;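 active = all replicates at 75% or more, or half of them and the mean; inconclusive = half reach 75% but not the mean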;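 also: 0% = cytokine-treated negative control wells and 100% = positive control rescue; higher means more ATP so stronger rescue from cytokine killing; wells of about 40 µL received 100 nL stock; the first replicate is given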
RanGTP-Impb inh – inhibitors of RanGTP-importin-beta interaction, primary screen, biochemical, FRET, CFP-Ran, YFP-importin-beta, homogeneous. cell-free CFP-Ran/YFP-importin-beta FRET ratio. inhibition, % (test concentration not listed). 1.1% of 300,000 active. AID 2216;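 active = most replicates above 15%; inconclusive = exactly half above 15%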;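 also: 0% = DMSO wells and 100% = Ran loaded with GDP instead of GTP; wells of about 40 µL received 100 nL stock; the first replicate is given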
Vif A3G – inhibitors of Vif binding to APOBEC3G peptide, primary screen, biochemical, TR-FRET, GST-Vif 1-94, biotin-A3G peptide, dose response retest (AID 1117319) | TR-FRET GST-Vif / biotin-A3G peptide binding; higher % means a stronger effect; test concentration not given here; strong numbers were not always called active | inhibition, %, or IC50 in µM where a hit was titrated | 0.57% of 260,000 active;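 active = above the screen mean plus three standard deviations and confirmed in dose response; inconclusive = results disagree or hit not tested in dose response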;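 also: Vif residues 1-94 fused to GST binding biotinylated APOBEC3G peptide 110-148; 0% = full assay without inhibitor and 100% = GST in place of GST-Vif; retest series ran down from 100 µM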
T cruzi inh – T. cruzi replication inhibition; T. cruzi beta-gal in NIH3T3, luminescence, 90 h; inhibition, % (concentration not given with the values); 1.4% of 300,000 active;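 active = mean inhibition across valid replicates above about 55%, limit read from the data; inconclusive = mean below that limit but half or more replicates reach it; inactive = mean below it, under half of replicates reach it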;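 also: signal also drops with host cell toxicity which is not excluded here; 0% = plate median of DMSO wells and 100% = zero luminescence signal; higher percent means less beta-gal luminescence so fewer parasites; stock transfer was 50 nL into about 50 µL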
A1 inh – inhibitors of the anti-apoptotic protein A1, read as caspase activation. MEF A1-2A-BIM cells, Caspase-Glo 3/7 luminescence, 3 h; percent of clofoctol response, vehicle zero. caspase activation, % (concentration not given with the values). 0.066% of 330,000 active. AID 2462;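 active = over half of replicate activation scores above 10%, or exactly half above 10 with the replicate mean above 10; inconclusive = replicate mean below 10 yet half the replicates above 10; inactive = over half of replicates below 10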;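 also: wells of about 30 µL received 50 nL stock; many hits fall short of the cut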
Calb FLC – C. albicans growth modulation with fluconazole | 0.57% of 300,000 active | growth inhibition, % (no concentration beside the values) | C. albicans CaCi-2 (fluconazole-resistant clinical isolate) + fluconazole, Alamar Blue growth, 48 h | AID 1979;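 active = most replicates above 75%; inconclusive = exactly half above 75%; inactive = most below 75%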;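 also: all wells also contain fluconazole at 8 µg/ml as a sub-toxic cotreatment; 0% = median of DMSO wells and 100% = median of geldanamycin control wells; wells of about 8 µL received 7.5 nL stock; the first replicate is given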
Ecoli rRNA inh – inhibits bacterial ribosomal RNA function over humanized ribosomes | 1.6% of 350,000 active | GFP signal change (wild-type ribosome), % (test concentration not listed) | E. coli WT GFP vs humanized-ribosome RFP mutants, fluorescence, 24 h; hits give low values; DMSO median 0, no signal -100;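 active = significant combined selectivity score with lowered wild-type GFP, culture density cut under 30%, mutant RFP and density less affected; inactive = any of these conditions unmet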; also: one replicate is shown; some compounds called inactive have numbers as strong as hits
AF4-AF9 inh – blocks AF4 peptide binding to human AF9 | P42568 | AlphaScreen, biotin-AF4 peptide binding to FLAG-AF9 | inhibition, % at 10 µM | 0.47% of 350,000 active | AID 651704;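 active = every replicate reaching a set inhibition limit, whatever the replicate mean, cut at about 25% in these data; inconclusive = mean inhibition reaches that limit but some replicates miss it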;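 also: 0% = plate neutral control median and 100% = total signal loss; the record names both 10 and 1 µM as test concentration; the first replicate is given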
Target sequence (P42568 whole entry, looked up): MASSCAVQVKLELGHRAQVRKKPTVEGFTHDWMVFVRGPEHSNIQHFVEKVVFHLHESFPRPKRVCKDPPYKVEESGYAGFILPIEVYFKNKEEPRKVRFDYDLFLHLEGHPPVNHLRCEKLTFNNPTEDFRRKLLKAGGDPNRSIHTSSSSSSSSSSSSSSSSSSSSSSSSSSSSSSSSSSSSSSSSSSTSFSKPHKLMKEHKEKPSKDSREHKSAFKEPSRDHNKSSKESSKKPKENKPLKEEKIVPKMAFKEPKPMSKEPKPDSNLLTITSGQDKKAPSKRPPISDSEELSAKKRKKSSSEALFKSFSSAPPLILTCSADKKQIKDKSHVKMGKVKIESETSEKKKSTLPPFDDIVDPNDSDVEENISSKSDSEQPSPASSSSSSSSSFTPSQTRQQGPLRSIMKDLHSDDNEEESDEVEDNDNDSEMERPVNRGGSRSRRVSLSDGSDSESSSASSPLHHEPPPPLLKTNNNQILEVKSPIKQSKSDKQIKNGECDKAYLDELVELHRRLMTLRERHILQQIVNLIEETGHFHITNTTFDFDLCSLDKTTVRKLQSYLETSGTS
Ecoli rRNA inh OD600 – second read-out of Ecoli rRNA inh, no call of its own (marks repeat the call); OD600 change, %; measured here: OD600 growth;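 optical density of the mix in the first replicate; 0 = DMSO median and -100 = no signal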
Ecoli rRNA inh RFP – second read-out of Ecoli rRNA inh, no call of its own (marks repeat the call); RFP signal change, %; measured here: RFP humanized mutant strains;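 first replicate; 0 = DMSO median and -100 = no signal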
The depositor's hits bear a star; ? = inconclusive; nt = no result given; & = joins results of further samples.

Sequence of screens: Beta apoptosis | RanGTP-Impb inh | Vif A3G | T cruzi inh | A1 inh | Calb FLC | Ecoli rRNA inh | Ecoli rRNA inh OD600 | Ecoli rRNA inh RFP | AF4-AF9 inh
Cc1cc(C(=O)N2C(C)CCCC2C)no1 (stereo unspecified)
→ -10 | 0.3 | nt | -7 | 0.7 | 2 | -3 | -4 | 0.8 | -1.6
CCCN(CCC)CCCNC(=O)c1nn(-c2cccc(OC)c2)c(=O)c2ccccc12
→ -2 | -1.2 | 32% | 25 | -0.1 | -4 | 11 | 16 | 4.2 | 1.8
COCCN1C(=O)C(=O)/C(=C(/O)c2cccc(S(=O)(=O)N(C)C)c2)C12C(=O)N(C)c1ccccc12 (stereo unspecified)
→ -6 | 7.6 | 2%&-3% | 2 | 0.5 | -3 | nt | nt | nt | nt
CC1(C)CC(N2CCC(=O)N(C3CC(C)(C)NC(C)(C)C3)C2)CC(C)(C)N1
→ 0 | 2.9 | -8% | -7 | 0.5 | -1 | nt | nt | nt | nt
Cc1ccc2nc(Cl)c(/C=N/NC(=O)[C@H]3C[C@@H]3c3ccccc3)cc2c1
→ 5 | 3.8 | nt | 37 | 0.1 | -2 | 20 | 24 | 7.4 | 0.1
Fc1ccc(NC(=S)N2CCCN(c3ccc(C(F)(F)F)cn3)CC2)c(F)c1
→ 12 | -1.3 | 1% | -14 | 0.2 | 3 | -23 | -49 | 5.5 | -1.7
COc1cc([N+](=O)[O-])cc(/C=N\NC(=O)C2COc3ccccc3O2)c1O (stereo unspecified)
→ 17 | -1.6 | 17% | -6 | -2.7 | 7 | -20* | -5.8* | -2.2* | -1.2
COc1ccc(-c2cc3c(=O)n(CC(=O)NCCCN4CCN(Cc5ccccc5)CC4)ncn3n2)cc1
→ 57 | ? | -6% | 26 | -3.0 | 1 | 5 | 7 | -1.4 | 4.3
C=CCN(C(=O)CCC(=O)Nc1cc(C)on1)C(C(=O)NC1CCCC1)c1ccc(Cl)cc1 (stereo unspecified)
→ -4 | -3.5 | nt | 11 | -0.4 | 2 | 2 | 10 | 0.5 | 0.5
Cc1ccc(C(=O)N/C(=C\c2ccccc2)C(=O)NCCCn2ccnc2)cc1
→ nt | -2.1 | 4% | -14 | 1.6 | -1 | 18 | 5 | -5.8 | -1.3
CC(NCc1ccc2c(c1)OCO2)C(=O)NC1CCCCC1 (stereo unspecified)
→ nt | 2.1 | ? | -6 | -0.7 | -10 | 10 | 2 | -1.2 | -1.9
N#Cc1cccc(CN2CCC(=O)N(CCO)CC2)c1
→ -5 | -4.7 | nt | -6 | 0.0 | -5 | 0 | 5 | 7.7 | -1.2
Cc1cccc(C)c1NC(=O)c1cnccn1
→ -2 | 1.7 | -2% | -7 | 3.1 | -12 | 6 | 13 | -0.3 | -11
CCOc1ccc(OCC(=O)OCC(=O)N(CC(C)C)c2c(N)n(Cc3ccccc3)c(=O)[nH]c2=O)cc1
→ 2 | 0.7 | 1% | -5 | 0.5 | -7 | 7 | 13 | 2.0 | -1.4
Cc1cc(C)n(-c2ccc(C(=O)OCC(=O)Nc3ccc(Cl)cc3[N+](=O)[O-])cc2)n1
→ 0 | -4.9 | nt | -10 | 0.9 | -12 | 8 | 3 | -1.0 | 0.2
CN(CC1CCN(CCc2cccc(C(F)(F)F)c2)CC1)C(=O)c1ccc(F)cc1
→ -8 | -2.2 | nt | 38 | 1.3 | -3 | 3 | 4 | 0.9 | -1.8
O=C(CC1Nc2ccccc2NC1=O)c1ccccc1 (stereo unspecified)
→ 2 | 2.3 | 19% | -6 | -8.5 | 8 | nt | nt | nt | nt
CC(C)CCNc1ncnc2c1nnn2Cc1ccccc1Cl
→ 7 | ? | 20% | -3 | 0.0 | -20 | nt | nt | nt | nt
COc1ccc(C2Nc3ccccc3C(=O)N2c2ccc(F)cc2)cc1Cn1nnc2ccccc21 (stereo unspecified)
→ -6 | 2.3 | nt | 10 | -0.8 | -5 | nt | nt | nt | nt
COc1ccc(-n2nc(C(=O)NCC(=O)NC(C)C)c3ccccc3c2=O)cc1Cl
→ 5 | 0.5 | nt | -8 | 1.2 | 10 | 7 | 5 | -0.3 | -1.9
Cc1sc2ncnc(SCC(=O)N3CCC(c4noc5ccc(F)cc45)CC3)c2c1C
→ -6 | -1.5 | 22% | nt | -0.7 | 4 | nt | nt | nt | nt
Cc1nn(Cc2ccc(Cl)cc2)c(C)c1NC(=O)c1cc(C(C)C)on1
→ 8 | 3.5 | nt | -2 | -0.1 | -8 | 6 | 5 | 0.3 | -2.3
COc1ccc(S(=O)(=O)N2CCCOC2CNC(=O)C(=O)NCCc2ccco2)cc1C (stereo unspecified)
→ 0 | ? | 6% | -12 | 0.6 | 1 | -2 | -8 | 5.5 | -0.1
CCOC(=O)c1cc(OC(=O)c2cccc([N+](=O)[O-])c2)n(-c2ccccc2)n1
→ -3 | -1.6 | 20% | -4 | 0.8 | -1 | nt | nt | nt | nt
COc1ccc(N/N=C(\C#N)C(=N)N2CCOCC2)cc1
→ -1 | 0.6 | -8% | -2 | 0.6 | -7 | 1 | 4 | 3.7 | -11
O=C(COc1ccccc1F)NNC(=O)Cn1c(=O)cnc2ccccc21
→ -4 | nt | 2% | nt | 0.6 | nt | 7 | 8 | -0.4 | -2.6
NC1=NC[C@H](Cc2ccccc2)N1CCCCC1CCCCC1
→ 112* | 6.1 | -7% | 48 | 0.1 | 105* | -56 | -77 | -26 | 4.5
Nc1c(Cl)ncnc1NCc1ccccc1
→ 4 | -2.1 | nt | -11 | 1.0 | 4 | -1 | 2 | -1.5 | -3.5
Cc1ccc(-n2nc3c(=O)n(CCCC(=O)NCc4ccccc4F)nc(C)c3c2C)cc1
→ 4 | 1.3 | nt | -10 | 0.3 | 3 | -2 | 8 | -6.0 | -1.7
CCc1ccc(N(C(=O)CNC(=O)c2ccco2)C(C(=O)NCC2CCCO2)c2ccccc2)cc1 (stereo unspecified)
→ -3 | 2.8 | 6% | -14 | -1.1 | 10 | 4 | 13 | 1.4 | -1.0
O=C(NC(Cc1ccccc1)C(=O)O)/C(=C/c1ccc(Br)cc1)NC(=O)c1ccc(Br)o1 (stereo unspecified)
→ 2 | 24* | nt | -1 | 1.5 | 10 | -3 | 5 | 2.8 | -3.4
O=C(CNC(=O)c1ccccc1F)N/N=C/c1cccs1
→ 2 | -0.7 | -1% | 1 | 0.3 | 10 | 12 | 22 | 1.0 | 0.7
CC(=O)N1c2ccc(S(=O)(=O)N3CCC(C(=O)Nc4cccc(C)n4)CC3)cc2CC1C (stereo unspecified)
→ 28 | 1.1 | 1% | 8 | 0.3 | -1 | 0 | 0 | -1.4 | -2.0
N#Cc1cc([N+](=O)[O-])ccc1Oc1cccc(/C=N/NC(=O)c2cccc(Cl)c2)c1
→ 5 | 1.5 | 3% | 68* | -0.7 | 6 | nt | nt | nt | nt
Oc1ccc(/C=N/Nc2nn3cnnc3c3ccccc23)cc1
→ 13 | 2.5 | ? | -11 | -3.3 | 9 | 2 | 11 | -0.2 | 0.6
O=C(Nc1nccs1)c1ncc(Cl)c(Cl)c1Cl
→ 0 | 1.6 | nt | -1 | -2.4 | 20 | 15 | -2 | -2.0 | -3.3
CCCOc1cc(C)c(S(=O)(=O)N2CCN(C)CC2)cc1C
→ -12 | -1.0 | -1% | 11 | 0.1 | 0 | nt | nt | nt | nt
CCOc1cc(C2NN=C(c3ccccc3)S2)ccc1OCc1ccccc1Cl (stereo unspecified)
→ 4 | 0.7 | -3% | 7 | -4.0 | 0 | nt | nt | nt | nt
CCOC(=O)C(=Cc1c[nH]c2ccc(S(=O)(=O)N(C)C)cc12)C(=O)OCC
→ -2 | ? | 21% | 4 | 0.3 | -2 | -6 | -8 | 13 | 0.6
CCCCN(C(=O)c1c(CC)noc1C)c1c(N)n(CCCC)c(=O)[nH]c1=O
→ -2 | 6.7 | -6% | -5 | -0.1 | nt | 12 | 8 | -0.3 | -2.7
COc1ccccc1-c1cc(C(=O)Nc2sc3c(c2C#N)CCC(C)C3)c2ccccc2n1 (stereo unspecified)
→ 9 | -1.2 | -3% | 17 | -0.5 | 33 | nt | nt | nt | nt
Cc1cc(=S)[nH]c2c(C)cccc12
→ -9 | -0.9 | 1% | -28 | -0.3 | -7 | nt | nt | nt | nt
Cc1cc(C)c(CSc2nnnn2-c2ccc(C(=O)O)cc2)c(C)c1
→ -5 | -3.1 | nt | -18 | -0.2 | -2 | -11 | -46 | -1.9 | -7.1
O=C(NCC1CCCO1)C1C2C=CC3(CN(Cc4cccs4)C(=O)C13)O2 (stereo unspecified)
→ -6 | -0.7 | 10% | -13 | -0.3 | -4 | nt | nt | nt | nt
Cc1ccc(C2=NN(S(C)(=O)=O)C(c3ccc4nccnc4c3)C2)cc1 (stereo unspecified)
→ -5 | -1.9 | -30% | -15 | -4.0 | 0 | 14 | 8 | -7.2 | -0.2
NNC(=O)CN1C(c2ccccc2)=Nc2ccc(Br)cc2C1c1ccccc1 (stereo unspecified)
→ 3 | 7.5 | -6% | 8 | -0.4 | 11 | -3 | -12 | -0.7 | 0.2
CNC(=O)CC1C(=O)N(c2ccc(Cl)cc2)C(=S)N1CCc1ccc(OC)c(OC)c1 (stereo unspecified)
→ -10 | -1.7 | -4% | -20 | 0.7 | -10 | 7 | 12 | 3.0 | -3.2
Cc1ccc(C(=O)N2CCN(S(=O)(=O)c3ccccc3C#N)CC2)cc1S(=O)(=O)N1CCOCC1
→ -3 | nt | nt | nt | -0.3 | nt | 4 | 4 | 0.1 | 12
CCOC(=O)c1c(C)[nH]c(=S)c(C#N)c1-c1ccc(OC)cc1
→ 0 | ? | 21% | -9 | -0.2 | -19 | nt | nt | nt | nt
CC(=O)N1CC23C=CC(CC2CC12CCCCCC2)O3 (stereo unspecified)
→ -5 | -1.1 | nt | -4 | 0.4 | -4 | 6 | -4 | 0.4 | -0.2
CCOC(=O)Cc1nc(-c2ccccc2)n[nH]1
→ 0 | 2.3 | 1% | -11 | 0.7 | -1 | 16 | 14 | 2.6 | 0.2
COC(=O)c1c(NC(=O)Cc2cccs2)sc2c1CCCC2
→ 7 | 6.7 | 30% | nt | -0.1 | 6 | nt | nt | nt | nt
CCN1CCN(CCCNC(=O)c2cc3sccc3n2CC)CC1
→ -8 | -1.6 | -3% | -10 | 0.7 | 2 | -1 | 10 | -5.0 | 3.2

Only part of the results is shown; the hit share may differ from the screen's.
